Mtb growth: Mycobacterium tuberculosis H37Rv growth inhibition, cell based, confirmatory dose response (AID 1949); 100,000 compounds, 1.6% hits; inhibition, % at 10 µg/mL; hits with a dose series show IC50 in µg/mL; most inactive calls were filed without a number and no value below 0 was filed;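 active = confirmed in a dose series; inconclusive = about 50% or more but not retested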;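 also: bacteria grown 7 days with compound before Alamar blue readout; 0% = untreated bacteria and 100% = reference antibiotic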
Starred values were filed as active, the others as inactive; i = inactive; ? = inconclusive.

SMILES	Mtb growth
O=C(COC(=O)C1CCC(N2C(=O)C3C4C=CC(C4)C3C2=O)CC1)c1ccc(Cl)cc1Cl (stereo not drawn)	i
Cc1ccc(-c2nnc(SCC(=O)Nc3ccc(C)c(Cl)c3)o2)cc1	12.2%
Cc1ccccc1NS(=O)(=O)c1cc(C(N)=O)ccc1C	i
COc1ccc(S(=O)(=O)N2CCN(c3ccc(C)cc3C)CC2)cc1C	1.6%
O=C(Oc1c(Cl)cc(Cl)c2cccnc12)c1cc(S(=O)(=O)N2CCCCC2)ccc1Cl	0.48µg/mL*
C=CCn1c(CCCOc2ccc(Cl)cc2Cl)nnc1SCC(=O)Nc1ccc([N+](=O)[O-])cc1	i
Cc1ccc(SC(C)c2nc(-c3cccnc3)no2)cc1 (stereo not drawn)	5.2%
CCc1cccc(C)c1NC(=O)CN(c1ccc(OC)cc1OC)S(=O)(=O)c1ccc(C)cc1	2.6%
O=C(CSc1ccc(Cl)cc1)N1CCCc2ccccc21	3.7%
CNC(=S)Nc1ccc(Cl)cc1C	2.5%
CCS(=O)(=O)c1nc(S(=O)(=O)c2ccc(C)cc2)c(NCc2cccnc2)s1	i
CCN(CC)CCn1c(=N)n(CC(O)COc2ccc(Cl)cc2Cl)c2ccccc21 (stereo not drawn)	1.38µg/mL*
CN(C)c1ccc(CN2CCN(c3cccc(C(F)(F)F)c3)CC2)cc1	3.4%
COc1ccc(OC(C)C(=O)NC2CC(C)(C)NC(C)(C)C2)cc1 (stereo not drawn)	i
CCOC(=O)C1=C(C)NC(SCC(=O)Nc2cc(C)on2)=C(C#N)C1c1cccs1 (stereo not drawn)	11.4%
CCn1c(C)c(C(C)=O)c(N2CCN(c3ccc(OC)cc3)CC2)nc1=S	i
CC1CC(C)CN(CCCCOc2ccccc2-c2ccccc2)C1 (stereo not drawn)	i
Cc1cc(C(C)(C)C)cc(S(=O)(=O)N(C)c2ccccc2C(=O)O)c1C	i
Nc1nc(SCC(=O)c2ccc(Cl)cc2Cl)n[nH]1	i
CC(C)(C)NCC(O)COc1ccc(Cl)cc1Cl (stereo not drawn)	i
C=CCn1c(SCC(=O)Nc2ccc(F)c(Cl)c2)nnc1-c1ccc(Cl)cc1	i
O=C(NC1=NCCS1)c1cc(F)c(F)cc1Cl	i
COCCn1c(Cc2ccccc2)nnc1SCC(=O)Nc1ccc(OC)cc1	i
COc1ccc([N+](=O)[O-])cc1Nc1nc(C)cc(C)c1C#N	i
COc1ccc(NC(=O)C2CC3c4ccccc4C2c2ccccc23)cc1 (stereo not drawn)	i
CC(C)(C)NCCOc1ccc(Cl)cc1Br	i
CCOC(=O)C1SC(c2ccccc2)C(C#N)C1(O)c1ccccc1 (stereo not drawn)	0.7%
CCOC(=O)C(CC)Sc1ncnc2sc(-c3ccccc3)cc12 (stereo not drawn)	2.1%
O=C(COc1ccccc1)Nc1ccc(N2CCN(c3c(F)c(F)c(F)c(F)c3F)CC2)cc1	i
CCc1cccc(NC(=O)CSc2c(C)n[nH]c2C)c1	i
COc1cc(C)c(Br)cc1S(=O)(=O)N1CCCC1	i
CC(C)Cc1nc(SCC(=O)Nc2nc(-c3ccccc3)cs2)n[nH]1	i
CCN(CC)C(=O)c1sc(NC(=O)c2csc3ccccc23)c(C(=O)OC)c1C	i
O=S(=O)(Nc1ccncc1)c1ccc(I)cc1	i
O=C1c2ccccc2C(=O)N1CCc1nc(-c2ccc(Cl)cc2)no1	i
COC(=O)c1ccccc1NC(=O)c1cccc(NC(=O)C(C)C)c1	0.1%
Cc1ccc(C)c(COc2cc(C)cc3oc(=O)c(C)c(C)c23)c1	i
COCCn1c(C)cc(C(=O)CSc2nnc3scc(-c4ccc(Cl)cc4)n23)c1C	i
COc1ccc(CN2C(=O)c3oc4ccc(F)cc4c(=O)c3C2c2ccc([N+](=O)[O-])cc2)cc1 (stereo not drawn)	i
Cc1cc(Br)cc(C)c1NC(=O)CSc1ccccc1	i
O=c1c2ccccc2[nH]c(=S)n1CCN1CCCCC1	i
COc1ccc(-c2nc3cc(NC(=O)c4ccccc4C)ccc3o2)cc1Cl	i
Cc1ccc(C(C)C)c(OCC(=O)NNC(=S)NCCc2ccccc2)c1	i
COC(=O)c1cccc(Nc2cc(C)nc3c(C)cccc23)c1	i
CCOc1cccc(CNn2cnnc2)c1OCc1ccccc1	i
COc1ccc(N2CCN(C(=O)Nc3ccc(F)cc3)CC2)cc1	i
Cc1cc(Br)ccc1NC(=O)CSc1nnc(-c2ccccc2)n1C	i
COc1ccc(-c2nnn(CC(=O)NC(C)c3ccccc3)n2)cc1 (stereo not drawn)	i
O=c1c2c(nc3c(-c4cccc5ccccc45)c(Cc4ccccc4)[nH]n13)CCC2	7.8%
CCOC(=O)N1CCN(C(=O)CN(c2cccc(Cl)c2)S(=O)(=O)c2ccc(C)cc2)CC1	i
The list continues:
SMILES	Mtb growth
CCOC(=O)c1c(NC(=O)c2ccoc2C)sc(C(C)=O)c1C	i
O=C(NC(=S)Nc1ccc2nn(-c3ccccc3)nc2c1)c1cccs1	i
Cc1c(C(=O)N2CCN(C)CC2)oc2ccc(Cl)cc12	i
O=S(=O)(NCC1CCCO1)c1ccc2c(c1)OCCO2 (stereo not drawn)	i
CC1=CCC(C(=O)Nc2nccs2)C(C(=O)Nc2nccs2)C1 (stereo not drawn)	i
N#Cc1nc(-c2ccc(Cl)cc2)oc1NCC1CCCO1 (stereo not drawn)	1.1%
CCc1ccc(CC)c(S(=O)(=O)Nc2cc(C)ccc2C)c1	2.1%
O=C(Nc1nc(-c2ccc(Cl)s2)cs1)c1ccccc1	i
CC(C)NC(=O)c1cc(-n2cnnc2)ccc1Cl	1.9%
CCOC(=O)N1CCN(C(=O)CN(c2ccc(OCc3ccccc3)cc2)S(C)(=O)=O)CC1	i
C=CCN(C(=O)Nc1ccc(F)cc1)C1CC(=O)N(c2ccc(F)cc2)C1=O (stereo not drawn)	i
CS(=O)(=O)N(CC(=O)NCc1cccnc1)c1cc(Cl)ccc1Cl	i
Cc1cc(C)cc(NC(=S)N2CCN(c3ccccc3O)CC2)c1	i
CCCCOc1cccc(OCCOCCN2CCN(C)CC2)c1	i
COc1cc(OC)cc(C(=O)NNC(=O)Nc2ccccc2F)c1	i
CCOC(=O)c1ccc(NC(=S)NCCN2CCC(C)CC2)cc1	i
O=Cc1cc(Cl)ccc1OC(=O)Cc1ccccc1	i
O=c1cc(-c2ccccc2)nc(SCc2nc3ccccc3c(=O)[nH]2)[nH]1	i
CCN(CC)c1ccc([N+](=O)[O-])cc1C(=O)N1CCOCC1	i
COc1c(F)c(F)c(C(=O)O)c(F)c1F	i
O=C(c1ccccc1F)N1CCN(c2ccc([N+](=O)[O-])c(NCC3CCCO3)c2)CC1 (stereo not drawn)	i
COC(=O)c1ccc(NC(=O)CN(C)S(=O)(=O)c2ccc(Br)cc2)cc1	0.3%
O=C(CC12CC3CC(CC(C3)C1)C2)NCCN1CCOCC1	i
COc1cc(C2NC(=S)NC(c3ccccc3)=C2C(C)=O)ccc1O (stereo not drawn)	i
O=C(CSc1nnnn1-c1ccccc1)Nc1ccc(S(=O)(=O)Nc2ncccn2)cc1	i
CCN(CC)C(=S)NCCc1ccccc1	i
COc1ccc(N2C(=O)CC(SCCC(=O)Nc3ccc(F)c(Cl)c3)C2=O)cc1 (stereo not drawn)	i
O=C(O)CCSc1nc2ccccc2n1CCOc1ccccc1	i
CCC(C(=O)Nc1cc2oc3ccccc3c2cc1OC)c1ccccc1 (stereo not drawn)	47.8%
COC(=O)C(Oc1cc(C)cc2oc(=O)cc(-c3ccccc3)c12)c1ccccc1 (stereo not drawn)	i
COc1ccc(C(=O)NC(=S)NCc2ccccc2)cc1OC	i
Cc1ccc(-c2cc(C(=O)NCc3ccco3)c3ccccc3n2)s1	i
Cc1ccc(C(=O)Nc2cccc([N+](=O)[O-])c2)cc1I	i
COc1ccccc1CC(=O)Nc1ccc(Br)cc1F	1.9%
CCc1cc2c(=O)c(-c3ccc4c(c3)OCCCO4)coc2cc1OC(C)C(=O)OC (stereo not drawn)	39.9µg/mL*
CCc1ccc(N=C2NC(=O)CC(C(=O)Nc3cccc(Cl)c3Cl)S2)cc1 (stereo not drawn)	2.4%
Cc1ccc(CSCC2Nc3ccc(C(=O)O)cc3NC2=O)cc1 (stereo not drawn)	i
CCn1cc2c(n1)C(=O)N(c1ccccc1)C1c3ccccc3C(=O)N21 (stereo not drawn)	i
COc1ccc(NS(=O)(=O)c2ccc(C)c(N(C)S(=O)(=O)c3ccc(C)cc3)c2C)cc1	1.1%
Cc1cccnc1NC(=S)Nc1ccc(Cl)c(Cl)c1	8.34µg/mL*
CC(C)(C)NCC(O)COc1ccccc1C(=O)CCc1ccccc1 (stereo not drawn)	i
COC(=O)Cc1c(C)c2cc(Cl)c(OCC(=O)OC(C)(C)C)cc2oc1=O	i
CCOc1ccc(C2CC(=O)n3nc(-c4cccc(C)c4)nc3S2)cc1 (stereo not drawn)	i
COc1ccc(NC(=O)Cc2c(F)cccc2Cl)cc1	i
O=C(O)c1cccc(CSc2nnc(COc3ccccc3)o2)c1	0.5%
Cc1cc2ncn(C(C)c3ccccc3)c2cc1C (stereo not drawn)	?
COCc1nnc(NC(=O)c2ccc(SC)cc2OC)s1	i
N#Cc1ccc(-c2ccncc2)nc1SCC(=O)NC1CC1	i
O=[N+]([O-])c1cccc(S(=O)(=O)Nc2cccc(N3CCCC3)c2)c1	i
COC(=O)c1c(NC(=O)CC2Nc3ccccc3NC2=O)sc2c1CCCC2 (stereo not drawn)	i
Other compounds.
SMILES	Mtb growth
O=C(NCc1ccccc1)c1ccccc1Cl	i
CCOC(=O)C1=C(C)N(C)C(C)=C(C(=O)OCC)C1c1ccsc1	3.3%
COc1ccc(N(C(C)=O)c2nc(-c3cc4c(ccc5ccccc54)oc3=O)cs2)cc1	i
Cc1cc(OCCn2cnc3ccccc3c2=O)ccc1[N+](=O)[O-]	1.9%
Cc1cc(C)n2ncc(-c3ccccc3)c2n1	i
COCCn1cnc2cc(C)c(C)cc21	0.1%
COc1ccc(-c2noc(-c3ccc(OC)c(OC)c3)n2)cc1	i
CC(=O)N1CCc2cc(S(=O)(=O)Nc3ccn(-c4ccccc4)n3)ccc21	i
COCC(=O)Nc1ccc(S(=O)(=O)N2CCC(C)CC2)cc1	i
COC(=O)c1cc(OC)c(OC)cc1NC(=S)N1CCOCC1	i

Reprinted from the listing for reference:
SMILES	Mtb growth
CCc1cc2c(=O)c(-c3ccc4c(c3)OCCCO4)coc2cc1OC(C)C(=O)OC (stereo not drawn)	39.9µg/mL*
CCc1ccc(N=C2NC(=O)CC(C(=O)Nc3cccc(Cl)c3Cl)S2)cc1 (stereo not drawn)	2.4%
Cc1ccc(CSCC2Nc3ccc(C(=O)O)cc3NC2=O)cc1 (stereo not drawn)	i
CCn1cc2c(n1)C(=O)N(c1ccccc1)C1c3ccccc3C(=O)N21 (stereo not drawn)	i

Carrying on.
SMILES	Mtb growth
CCOC(=O)C1CCCN(C2CC(=O)N(c3ccc(Oc4ccccc4)cc3)C2=O)C1 (stereo not drawn)	i
COc1cccc(N2CCN(Cc3nc4ccccc4c(=O)[nH]3)CC2)c1	6.3%
O=C(NC(=S)NCCc1ccccc1)C1CCCCC1	i
CCCSc1nc(NN2C(=O)CCC2=O)c2c3c(sc2n1)CCC(C)C3 (stereo not drawn)	i
COc1cc2c(cc1NC(=O)C1(C)CC1(Cl)Cl)oc1ccccc12 (stereo not drawn)	1.4%
O=c1ccccn1CCOc1ccc(Br)cc1	i
C=CCn1c(COc2ccccc2C)nnc1SC(C)C(=O)NC(c1ccccc1)c1ccccc1 (stereo not drawn)	2.5%
COc1ccc(CCNS(=O)(=O)c2cccc(C)c2)cc1OC	i
CCOC(=O)c1c(NC(=O)c2ccc(OC)cc2OC)sc2c1CCC2	i
O=C(O)C1CCCCN1S(=O)(=O)c1ccc(Cl)cc1 (stereo not drawn)	i
C1=C(c2ccccn2)NN=C(c2ccccn2)C12c1ccccc1Oc1ccccc12	28.8%
Cc1ccc(CC(=O)Nc2cccc(Cl)c2C)cc1	i
CC(C)CNC(=O)c1ccccc1NC(=O)CN(c1ccc([N+](=O)[O-])cc1)S(=O)(=O)c1ccccc1	i
COC(=O)c1cc(OC)c(OC)cc1NC(=O)c1cc(-c2cccs2)nc2ccccc12	5.8%
CCc1cccc(OCC(=O)NC(c2ccccc2)c2ccccc2)c1	i
CCOc1ccccc1NC(=O)CSC1=C(C#N)C(c2ccco2)C(C(=O)Nc2nc3ccccc3s2)=C(C)N1 (stereo not drawn)	23.5%
S=C(NCc1ccc(Cl)cc1)NCc1ccccn1	i
COc1cc(SC)ccc1C(=O)NCCOc1ccc(F)cc1	12.1µg/mL*
O=Cc1cn(CC(=O)N2CCc3ccccc32)c2ccc(Br)cc12	i
Cc1cc(Cl)ccc1OCCCC(=O)N1CCCC1	i

Structures from the list above with two or more sulfur atoms (14):
SMILES	Mtb growth
CCS(=O)(=O)c1nc(S(=O)(=O)c2ccc(C)cc2)c(NCc2cccnc2)s1	i
CCOC(=O)C1=C(C)NC(SCC(=O)Nc2cc(C)on2)=C(C#N)C1c1cccs1 (stereo not drawn)	11.4%
CCOC(=O)C(CC)Sc1ncnc2sc(-c3ccccc3)cc12 (stereo not drawn)	2.1%
CC(C)Cc1nc(SCC(=O)Nc2nc(-c3ccccc3)cs2)n[nH]1	i
CCN(CC)C(=O)c1sc(NC(=O)c2csc3ccccc23)c(C(=O)OC)c1C	i
COCCn1c(C)cc(C(=O)CSc2nnc3scc(-c4ccc(Cl)cc4)n23)c1C	i
O=C(NC(=S)Nc1ccc2nn(-c3ccccc3)nc2c1)c1cccs1	i
CC1=CCC(C(=O)Nc2nccs2)C(C(=O)Nc2nccs2)C1 (stereo not drawn)	i
O=C(Nc1nc(-c2ccc(Cl)s2)cs1)c1ccccc1	i
O=C(CSc1nnnn1-c1ccccc1)Nc1ccc(S(=O)(=O)Nc2ncccn2)cc1	i
COc1ccc(NS(=O)(=O)c2ccc(C)c(N(C)S(=O)(=O)c3ccc(C)cc3)c2C)cc1	1.1%
COCc1nnc(NC(=O)c2ccc(SC)cc2OC)s1	i
CCCSc1nc(NN2C(=O)CCC2=O)c2c3c(sc2n1)CCC(C)C3 (stereo not drawn)	i
CCOc1ccccc1NC(=O)CSC1=C(C#N)C(c2ccco2)C(C(=O)Nc2nc3ccccc3s2)=C(C)N1 (stereo not drawn)	23.5%

Source: PubChem BioAssay (Southern Research Institute)

An excerpt; count on the stated rates, not on these rows.
